# Bioassay records (PubChem)
# RE007 growth inh = less growth of the S. pombe RE007 Vpr strain; S. pombe RE007 Vpr strain, BacTiter-Glo ATP luminescence, 24 h; control for the full effect not named in the record; Potency, µM (doses to about 92.2 µM), for the others: top-dose activity change, negative = less growth; actives 0.21% (n = 360,000); active = well fitted falling curve with a large enough effect; inconclusive = small, poorly fitted or top-dose-only effect; inactive = no such curve, though single readings can be large or run the other way;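 note: % is set by controls: 0 for no effect and ±100 for the full control effect; nearly all actives have a fitted effect of over 50% in size; the assay follows cell death caused by Vpr and the record does not say whether a fall means rescue or toxicity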
#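 Fission yeast RE007 carrying one integrated HIV-1 vpr copy, seeded at OD 0.01 in PMG+AL medium with 23 nL pinned compound. Grown 24 h at 30 degrees; viability read by BacTiter-Glo luminescence after 5 min.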
# Cruzain noTriton = cruzain (T. cruzi) inhibition without detergent; Potency, µM, for inactives: max response, negative = inhibition, most hits filed as inhibitors; purified cruzain, Z-FR-AMC fluorescence, no detergent; actives 2.3% (n = 200,000); P25779;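 note: plate controls were enzyme without inhibitor for no effect and buffer without enzyme for full effect; nearly all actives have a fitted effect of over 40% in size; top concentration of the series not given in the record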
# Target sequence (P25779 123-467 limits assumed): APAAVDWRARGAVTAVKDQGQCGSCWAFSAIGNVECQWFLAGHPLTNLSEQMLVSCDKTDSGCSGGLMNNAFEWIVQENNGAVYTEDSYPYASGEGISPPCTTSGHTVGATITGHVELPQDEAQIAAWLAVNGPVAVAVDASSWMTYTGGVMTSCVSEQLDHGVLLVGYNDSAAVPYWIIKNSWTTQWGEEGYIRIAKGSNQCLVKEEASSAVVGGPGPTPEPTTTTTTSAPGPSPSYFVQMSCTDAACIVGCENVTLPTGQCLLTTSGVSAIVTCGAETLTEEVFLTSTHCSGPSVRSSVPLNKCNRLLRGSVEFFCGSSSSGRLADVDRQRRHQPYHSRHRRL
#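 Detergent-free condition (0.00005% Triton X-100) in acetate buffer pH 5.5 with DTT. 1.5 nM enzyme and compound were pre-mixed 15 min, then 2 uM Z-FR-AMC substrate added; reaction progress from fluorescence change between first and third reads (60 s).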
# Lassa entry inh = inhibitors of Lassa virus binding or cell entry | Lassa virus pseudotype entry inhibition, cell reporter; control for the full effect not named in the record | Potency, µM (titrated, usually from 37.9 µM), for inactives: at the highest dose activity change, negative = inhibition, usual class: inhibitors | actives 1.2% (n = 300,000); active means well fitted inhibition curve with a large enough effect; inconclusive means small, poorly fitted or top-dose-only effect, or effect the other way; inactive means flat fitted curve, though single readings scatter; tested in HEK293 cells; note: % is set by controls: 0 for no effect and ±100 for the full control effect; nearly all actives have a fitted effect of over 50% in size; luciferase read-out
# MARV entry inh = inhibitors of Marburg virus binding or cell entry. Marburg virus pseudotyped entry inhibition, cell reporter; control for the full effect not named in the record; about a third of the inactives were read at about 46 µM. Potency, µM (series often up to 37.8 µM), without a hit: at the top dose activity change, negative = inhibition, actives largely listed as inhibitors. actives 1.8% (n = 300,000). AID 540276; active = well fitted inhibition curve with a large enough effect; inconclusive = small, poorly fitted or top-dose-only effect, or effect the other way; inactive = flat fitted curve, though single readings scatter; tested in HEK293 cells; about a fifth of its hits are not listed in these tables; note: % is set by controls: 0 for no effect and ±100 for the full control effect; luciferase read-out
# NS1 inh = inhibitors of influenza NS1 protein function; Potency, µM (series often up to 46.1 µM), without a hit: at the highest dose activity, positive = more growth; actives 0.4% (n = 270,000); S. cerevisiae slowed by influenza A NS1, growth recovery by OD600; active means well fitted rising curve with a large enough effect; inconclusive means small, poorly fitted or top-dose-only effect; inactive means no such curve, though single readings can be large or run the other way; note: nearly all actives have a fitted effect of over 50% in size
#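 OD600 was taken as the measure of yeast growth restored by compound in an NS1-expressing S. cerevisiae strain. Cells had been washed out of glucose medium and diluted 1:100 into galactose -URA medium, pH 6.0.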
# StopGo reporter = FMDV 2A StopGo reporter, luciferase signal. human cells with a luciferase reporter of 2A StopGo recoding; control for the full effect not named in the record. Potency, µM (highest dose often 57.9 µM), inactives show at the highest dose signal change, negative = less light. actives 1.2% (n = 410,000). AID 1159524; active = well fitted falling curve with a large enough effect; inconclusive = small, poorly fitted or top-dose-only effect; inactive = no such curve, though single readings can be large or run the other way; tested in HEK293T cells; note: % is set by controls: 0 for no effect and ±100 for the full control effect; nearly all actives have a fitted effect of over 45% in size; luciferase light after 4 h
# Cruzain Triton = blocks cruzain activity in presence of Triton detergent; P25779; purified cruzain, Z-FR-AMC fluorescence, 0.01% Triton; Potency, µM, for the others: max response, negative = inhibition, most hits filed as inhibitors; actives 0.43% (n = 200,000);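 note: plate controls were neutral wells for no effect and buffer without enzyme for full effect; nearly all actives have a fitted effect of over 40% in size; top concentration of the series not given in the record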
#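 Z-FR-AMC hydrolysis (2 uM substrate) by cruzain (1.5 nM) monitored kinetically at ex 360/em 450 nm after 15 min room-temperature compound exposure; 0.01% Triton X-100, pH 5.5, 5 mM DTT.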
# SARS PLpro yeast = SARS-CoV PLP inhibition in yeast; S. cerevisiae expressing SARS-CoV PLpro, growth rescue; control for the full effect not named in the record; Potency, µM (series often up to 32.9 µM), for the others: at the top dose activity, positive = growth rescue; actives 0.19% (n = 330,000); AID 485353; active means well fitted rising curve with a large enough effect; inconclusive means small, poorly fitted or top-dose-only effect; inactive means no such curve, though single readings can be large or run the other way; note: 0% is about no effect; nearly all actives have a fitted effect of over 55% in size; growth read by luminescence after 48 h
# * marks the source's active call; other numbers are inactive results; ? = inconclusive; · = no result given; & = joins results of further samples; [ ] = dose if it differs, or a comment. Unless noted, calls come from the whole dose curve; as a rule, active = well fitted curve in the direction sought with a large enough effect; inconclusive = small, poorly fitted or top-dose-only effect, or another doubt; inactive = no such curve, though single readings can be large; an effect the other way counts as inactive or inconclusive. Potency is the fitted concentration of half-maximal effect.
compound	NS1 inh	StopGo reporter	Cruzain Triton	Lassa entry inh	MARV entry inh	RE007 growth inh	Cruzain noTriton	SARS PLpro yeast
Cc1c(Cl)cccc1NC(=O)CC1Oc2ccccc2NC1=O (stereo not drawn)	-1%	-14%&-1%	-2.1%	-26%[46.1 µM]	?	?	1%	-1%
Cc1ccc(C(=O)Nc2ccc(C(=O)NCC3CCCO3)cc2)cc1 (stereo not drawn)	11%	5%	·	·	·	6%	·	0%
CCCC/C(O)=C1\C(=O)CC(C)(C)CC1=NCCCCCC(=O)O	·	-19%	·	6%	12%[46.1 µM]	-4%	·	0%
COc1ccc(CN(C(=O)Cc2c[nH]c3ccccc23)C(C(=O)NC2CCCCC2)c2ccc(C)o2)cc1 (stereo not drawn)	?	38%[activator]	2.3%	7.3µM*	7.3µM*	-4%[3.69 µM]	-5%	-6%
CCOc1ccc(CNC(=O)C2CCN(C3=NS(=O)(=O)C(c4ccc(C)cc4)=C3CC)CC2)cc1	·	-17%	-3.9%	·	?	·	24%	·
CCOc1ccccc1N1CN(CC)CNC1=S	7%	0%	1.9%	-11%	-4%	0%	-10%	5%
C/C(=N\NC(=O)c1nnn(-c2nonc2N)c1CN(C)c1ccccc1)c1cccnc1	15%	-5%	·	·	·	-7%	·	-12%
COc1ccc(OCC(=O)Nc2ccc(NC(=O)c3ccco3)cc2)cc1	-59%	20%	3.4%	-2%	?	-8%	-6%	-15%
O=C(c1cccc(F)c1)N1CCC(N2CCCCCC2)CC1	7%	-5%	-2.1%	?	-10%	1%	6%	1%
COc1ccc(-c2cc3ccc(O)c(CN4CCOCC4)c3oc2=O)cc1OC	·	-9%	3.7%	12%[46.1 µM]	·	·	1%	·
Fc1ccccc1NC(=S)NCCc1cccc(Cl)c1	-33%	5%	·	-1%[46.1 µM]	-20%[46.1 µM]	2%	·	9%
COc1ccc(NC(=O)CN(c2ccc(F)cc2)S(=O)(=O)c2ccccc2)c(OC)c1	-38%	-20%	·	·	·	-8%	·	3%
Cc1ccccc1C#N	·	-14%	-1.0%	·	·	-18%	-7%	6%
CCN1C(=O)/C(=C\N2CCCc3ccccc32)SC1=S	-24%	-9%	-3.8%	14%	0%	13%	-2%	2%
C=CC(C)n1c(Br)nc2c1c(=O)[nH]c(=O)n2C (stereo not drawn)	0%	-5%	-1.4%	-3%	2%	8%	-5%	0%
CC(=O)Nc1ccc(S(=O)(=O)NCc2ccc(C)n2C)cc1	?	8%	·	-5%	26%[46.1 µM]	-6%	·	-1%
O=C(Nc1ccc2c(c1)OCO2)C1CCCN(S(=O)(=O)Cc2ccccc2)C1 (stereo not drawn)	13%	-16%	1.0%	10%	13%	2%	-16%	4%
CCOc1cccc(-c2c(C(=O)N/N=C(\C)c3cccnc3)nnn2-c2nonc2N)c1	7%	-12%	·	1%[46.1 µM]	-2%[46.1 µM]	-5%	·	?
CC(=O)N1CCN(c2ccc(NC(=O)c3ccc(Cl)cc3)cc2)CC1	19%	2%	·	·	·	7%	·	1%
NC(=O)c1c(N)sc(=S)n1-c1ccccc1	0%	-4%	-0.4%	12%	15%	1%	1%	-1%
Cc1ccc(/C=N\NC(=O)COc2ccc(C)cc2[N+](=O)[O-])cc1	·	-8%	·	-23%[46.1 µM]	-13%[46.1 µM]	-10%	·	3%
Cc1ccc(C(=O)Oc2cc(-c3ccccc3)no2)cc1	-11%	-10%	0.8%	1%	-1%	7%	-1%	-1%
COc1ccc(C(=O)NNC(=O)Cc2nc3ccccc3n2C)cc1	·	-5%	·	-8%	?	5%	·	2%
CCOC(=O)/C(=C/c1c(C)n(C)c2ccc([N+](=O)[O-])cc12)C(C)=O	-6%	13µM*	-4.0%	-13%	?	3%	2%	-6%
Cc1ccc(CCNC(=O)C2CCCN(c3nc4ccccc4o3)C2)cc1 (stereo not drawn)	-48%	-3%	-1.4%	0%	-7%	-4%	-6%	-7%
COc1ccc(-c2nnc3sc(CN4C(=O)c5ccccc5C4=O)nn23)cc1	-7%	6%	-1.3%	14%	1%	3%	-4%	-1%
COc1ccc2c(CNC3CCCCCC3)c(C(=O)O)n(Cc3cccc(F)c3)c2c1	·	17%	-1.4%	19%[46.1 µM]	·	·	-10%	·
NS(=O)(=O)c1cccc(NC(=O)Cc2ccc(Cl)c(Cl)c2)c1	-5%	-9%	·	-1%	?	-15%	·	5%
COc1ccc(CCN(CC(=O)NC2CCCC2)C(=O)CCC(=O)Nc2cc(C)on2)cc1OC	-49%	-11%	3.0%	15%	1%	6%	0%	1%
COc1ccc(S(=O)(=O)NCC(c2ccco2)N2CCN(c3ccccc3F)CC2)cc1C (stereo not drawn)	·	0%	-5.7%	?	·	·	6%	·
O=C(COc1ccc2ccccc2c1)N1CCCC1	3%	52%[activator]	5.3%	22%	?	3%	0%	0%
CCN1/C(=C\c2ccc3cc(C)ccc3[n+]2CC)Sc2cc(C)c(C)cc21	·	?	·	·	?	?	·	-25%
COc1cc(OC)c(CN2CCN(c3ccc(F)cc3)CC2)cc1Br	-9%	?	6.5%	?	?	-13%	11%	5%
Cc1cccc(C)c1OC(=O)CN1C(=O)c2ccccc2C1=O	21%	-5%	·	18%[46.1 µM]	-10%[46.1 µM]	3%	·	3%
COc1ccc(CNC(=O)COc2ccc(C(=O)c3ccc(F)cc3)cc2)cc1	15%	0%	-5.4%	?	-45%	11%	8%	5%
CSc1cccc(NC(=O)CNS(=O)(=O)c2ccccc2)c1	-4%	-1%	·	16%[46.1 µM]	13%[46.1 µM]	-9%	·	-2%
NC(=O)CSc1nc2ccccc2n1Cc1ccccc1F	-10%	-21%	1.4%	14%	?	-1%	0%	1%
COc1ccc(S(=O)(=O)N2C(=O)/C(=C3\SC(N)=NC3=O)c3ccccc32)cc1	4%	19%	·	5%	-4%[46.1 µM]	6%	·	0%
N=c1n(CCN2CCOCC2)c2ccccc2n1CC(O)COc1ccccc1 (stereo not drawn)	-13%	-28%	-1.6%	-9%	?	3%	-13%	2%
COc1ccc(C2CC(c3c(O)n(C4CCCCC4)c(=O)[nH]c3=O)=Nc3ccccc3S2)cc1 (stereo not drawn)	·	8%	-10.0%	-14%[46.1 µM]	7%[46.1 µM]	·	-8%	·
O=C(Cn1nnc(-c2ccccc2F)n1)OCC(=O)c1ccccc1	-8%	-7%	·	-2%	-16%[46.1 µM]	-2%	·	0%
N=c1n(N)c2ccccc2n1CC(=O)c1ccc(Br)cc1	5%	16%	·	?	?	-10%	·	-4%
CCCNC(=O)c1ccc2c(=O)c(O)c(-c3ccc(OC)cc3)[nH]c2c1	-5%	-14%	·	·	·	-8%	·	?
O=C(COc1cc(F)ccc1[N+](=O)[O-])Nc1cc(S(=O)(=O)N2CCCC2)ccc1Cl	·	-28%	·	-6%	-7%	4%	·	1%
Cc1ccc(/C=N/NC(=O)CSc2nc3ccccc3n2Cc2ccc(Cl)cc2)o1	21%	-16%	-6.9%	2%	0%	16%	-23%	7%
CC1CCN(C(=O)CCc2nnc3ccc(NCc4ccco4)nn23)CC1	0%	-8%	·	11%[46.1 µM]	3.2µM*	-1%	·	-2%
CSc1ccccc1NC(=O)c1cc(-c2cccnc2)nc2ccc(Br)cc12	0%	-18%	·	?	?	-10%	·	-1%
Cc1ccc(Cl)cc1-n1ncc2c(NCCC3=CCCCC3)ncnc21	·	-13%	0.3%	-10%[46.1 µM]	·	·	-1%	·
Cc1ccc(C)c(OCC(=O)N(Cc2nnc(-c3ccccc3Cl)o2)C2CC2)c1	·	0%	·	-1%	-7%	0%	·	3%
CC(=O)Nc1ccc(N2C(=O)CCC2=O)cc1C	4%	-24%	2.1%	6%	5%	-21%	-12%	-1%

# Next compounds
compound	NS1 inh	StopGo reporter	Cruzain Triton	Lassa entry inh	MARV entry inh	RE007 growth inh	Cruzain noTriton	SARS PLpro yeast
Cc1cc2cc(CNC(=O)Nc3ccccc3)ccc2[nH]1	·	56%[activator]	·	-21%	-5%	-8%	·	-5%
CC1CCCC(NC(=O)CCCn2c(=O)[nH]c3cc(Cl)ccc3c2=O)C1C (stereo not drawn)	0%	-14%	1.4%	-30%	-26%	1%	6%	4%
Cc1ccc(N(CN2CCCC2=O)C(=O)c2ccccc2)cc1	-6%	-7%	·	-9%	?	-14%	·	-1%
O=C(NC(=S)Nc1cc([N+](=O)[O-])ccc1O)c1ccc2c(c1)OCO2	-16%	17%	·	?	?	9%	·	1%
Cc1cc2ncn(S(=O)(=O)c3ccc(S(=O)(=O)N4CCOCC4)cc3)c2cc1C	0%	7%	-0.1%	1%	-14%	8%	-17%	-3%
O=[N+]([O-])c1cccc2nc(-c3ccccc3)c(-c3ccccc3)nc12	2%	?	·	-28%	-4%	3%	·	-1%
O=C(Nc1ccc(Br)cc1F)c1cc(S(=O)(=O)NCc2ccc(F)cc2)ccc1F	·	23%	1.2%	16%[46.1 µM]	·	·	-15%	·
COc1ccccc1CNc1ccc2c(c1)CCC2	1%	-14%	·	-5%[46.1 µM]	-13%[46.1 µM]	-12%	·	-6%
Nc1ccc(-c2nc3cc(N)ccc3n2CCO)cc1	7.9µM*	-26%	·	·	·	13%	·	1%
O=C(CNC(=O)c1ccc2c(c1)OCCO2)N/N=C/c1ccc(O)cc1O	1%	7%	-7.9%	1%	-5%	·	9%	-5%
Cc1ccc(Nc2ccc(N3CCN(C(=O)c4ccc([N+](=O)[O-])cc4)CC3)nn2)cc1	·	-24%	-8.3%	18%[46.1 µM]	·	·	-20%	·
COc1ccc(C(C(=O)NC(C)(C)C)N(C(=O)CCC(=O)Nc2ccccn2)C2CCCCC2)cc1 (stereo not drawn)	-14%	2%	·	-5%[46.1 µM]	?	3%	·	-1%
O=C(Nc1ccc2c(c1)OCO2)OCc1ccccc1	-60%	21%	-3.0%	?	?	-5%	9%	-3%
